Mtb growth: M. tuberculosis H37Rv growth inhibitors, H37Rv strain (AID 1626). M. tuberculosis H37Rv growth inhibition; higher % means a stronger effect. inhibition, % at 10 µM; hits with a dose series show IC50 in µM. 220,000 tested, 0.95% active;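 active means confirmed in a dose series; inconclusive means inhibition above 80% but not taken into the dose series; inactive means below 80% or under 30% at every dose of the series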;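 further: bacteria incubated seven days before Alamar blue readout; 0% = bacteria only wells and 100% = bacteria with antibiotic wells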
RecA splice inh: inhibitors of M. tuberculosis RecA intein splicing; 290,000 tested, 0.75% active; AID 2221; cell-free RecA intein splicing, fluorescence; P9WHJ3; inhibition, %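 (about 9 µM by stock and volumes)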; in the data active means inhibition above about 30%; inconclusive means no clear call, values can overlap the other calls;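 further: 0% = vehicle wells and 100% = reference inhibitor control wells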
Target sequence (P9WHJ3 whole entry, looked up, canonical isoform): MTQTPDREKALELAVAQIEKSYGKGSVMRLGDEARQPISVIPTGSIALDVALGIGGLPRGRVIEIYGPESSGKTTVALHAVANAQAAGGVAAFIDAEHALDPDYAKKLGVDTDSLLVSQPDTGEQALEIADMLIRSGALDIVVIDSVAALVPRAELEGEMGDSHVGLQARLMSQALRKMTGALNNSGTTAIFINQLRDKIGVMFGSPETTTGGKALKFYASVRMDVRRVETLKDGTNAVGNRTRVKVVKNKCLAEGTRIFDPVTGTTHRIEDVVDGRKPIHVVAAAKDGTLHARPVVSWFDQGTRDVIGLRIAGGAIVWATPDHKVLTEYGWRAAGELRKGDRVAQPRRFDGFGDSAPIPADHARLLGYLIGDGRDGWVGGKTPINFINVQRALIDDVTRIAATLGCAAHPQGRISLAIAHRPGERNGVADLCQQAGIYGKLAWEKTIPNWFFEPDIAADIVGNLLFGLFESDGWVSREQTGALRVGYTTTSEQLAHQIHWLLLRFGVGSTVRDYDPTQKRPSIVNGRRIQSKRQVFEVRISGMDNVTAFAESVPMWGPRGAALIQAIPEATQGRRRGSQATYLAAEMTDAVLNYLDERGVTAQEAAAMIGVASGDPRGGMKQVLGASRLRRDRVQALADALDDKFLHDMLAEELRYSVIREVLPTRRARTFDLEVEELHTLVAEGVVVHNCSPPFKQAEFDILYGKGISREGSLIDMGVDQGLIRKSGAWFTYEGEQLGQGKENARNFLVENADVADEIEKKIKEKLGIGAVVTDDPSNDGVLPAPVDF
Arbovirus anti: antivirals against arbovirus infection. arbovirus infection cell-based antiviral screen. inhibition, % at 10 µM. 200,000 tested, 0.37% active;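 active means inhibition from about 30%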;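 further: bluetongue infection of BSR cells; cell survival read as ATP light after 72 h; 0% = infected wells without compound and 100% = uninfected wells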
Mtb betalactam: beta-lactam sensitization of Mtb H37Rv. M. tuberculosis H37Rv growth with meropenem, percent inhibition; hits of this screen are not shown here. inhibition, % at 25 µM. 330,000 tested, 0.27% active. AID 434955;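 active means about 74% or more and at least 40 points above the plate without the antibiotic, then above 30% in a dose series; inconclusive means first-round hits that could not be retested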;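 further: growth measured after seven days incubation then overnight dye step; 0% = bacteria only wells and 100% = bacteria with antibiotic; twin plates without the antibiotic show which effects depend on it; some results filed as inactive read as strong as hits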
YopH inh: YopH (Yersinia) phosphatase inhibition; fluorescence Ex485/Em525; inhibition, %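 (about 10 µM by stock and volumes)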; 140,000 tested, 0.16% active; AID 898;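 active means inhibition of 50% or more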;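 further: controls were vehicle for no effect and minimum signal wells for full effect; inactives centre near -20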
Arbovirus anti repeat: further read-out of Arbovirus anti, marked with its call; inhibition, %; measured here: 10K subset replicate screen; many hits read low in the repeat;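 first of two repeat runs on a subset; 0% = infected and 100% = uninfected wells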
Active calls of the source: *; i = inactive; ? = inconclusive; nt = no result given.

SMILES	Mtb growth	RecA splice inh	Arbovirus anti	Mtb betalactam	YopH inh	others
Cc1cccc(-n2c(=O)c(C#N)cc3c(=O)n4ccccc4nc32)c1	-7%	i	-3	5	-13
Cc1ccc2c(C)c(C(=O)N3CCN(c4ccncc4)CC3)oc2c1C	nt	1.3	nt	4	nt
Cc1c[n+](CC(=O)c2ccccc2)c(C)cn1	nt	0.4	nt	-1	nt
CCOC(=O)N1CCC(NC(=O)c2ccc3c(c2)N(CC)CCS3)CC1	6%	-0.2	-5	-4	-25	Arbovirus anti repeat=-4
C=CCN1C(=O)N/C(=C/c2ccc(N3CCOCC3)o2)C1=O	11%	-7.5	-4	69	-22
COc1cc2c(cc1OC)C(=O)NCC(C)(C)O2	-1%	-1.8	1	-2	-24
Cc1ccccc1Nc1nnc(SCC(=O)NC(=O)NCc2ccco2)s1	nt	-2.1	3	-5	-26
Cc1nn(Cc2cccc(C(=O)Nc3ccn(Cc4c(F)c(F)cc(F)c4F)n3)c2)c(C)c1[N+](=O)[O-]	1%	-1.1	11	6	-21
O=C(Cn1cc2c(n1)CCCCC2)NC1CCN(Cc2ccccc2)CC1	-1%	1.0	-3	0	-33	Arbovirus anti repeat=-6
CCn1c(-c2ccccc2SC)n[nH]c1=S	-7%	1.1	8	-1	nt
C=C(C)C(=O)Nc1cccc(C2=NOC3(C2)C[C@H](C(N)=O)N(C(=O)c2ccccc2C(=O)c2ccccc2)C3)c1 (stereo not given in full)	12%	5.7	nt	-3	nt
CC(C)c1ccc(S(=O)(=O)N2CCN(C(=S)NCc3ccco3)CC2)cc1	2%	1.4	6	-3	-29
CCc1c(C)c2c(C)[nH]nc2oc1=O	-7%	1.9	-3	-5	-51
COC(=O)c1ccc(-n2c(C)nc(=O)c(-c3ccccc3)c2C)cc1	-6%	-0.8	3	5	0
CC#CC(=O)N1CCC(C(=O)Nc2ccc(Oc3ccccc3)nc2)CC1	nt	5.5	nt	-2	nt
CCC(C)C(=O)Nc1nc(C)c(-c2csc(Nc3ccccc3OC)n2)s1 (stereo not given)	-6%	6.1	-14	4	-22
CC(=O)c1ccc(N2CCN(c3ccnc4cc(Cl)ccc34)CC2)cc1	nt	1.4	nt	5	nt
CCCN1CCN(CC(=O)Nc2cc(OCC)ccc2OCC)CC1	nt	1.0	nt	4	nt
Cn1c(Cl)c(/C=N/OC(=O)C2CC2)c2ccccc21	?	-1.0	-2	89	nt
CCOc1ccc(NC(=O)c2ccc(NCC(=O)N3CCCCCC3)cc2)cc1	18%	-2.5	-1	5	nt
COc1cc(C2Nc3ccc4ccccc4c3C3=C2C(=O)CC(C)(C)C3)ccc1OCC(=O)O (stereo not given)	nt	-152	nt	1	nt
COCCCN(CCC#N)C(=O)c1c(-c2c(Cl)cccc2Cl)noc1C	-10%	nt	nt	-3	nt
O=C(Nc1nc2ccccc2s1)c1ccccc1[N+](=O)[O-]	nt	0.5	nt	0	nt
CC(=O)N(CCc1ccccc1C)Cc1cc2cc(C)ccc2[nH]c1=O	nt	-1.0	nt	-4	nt
COc1ccc(CCNC(=O)CCCCn2c(=O)[nH]c3ccccc3c2=O)cc1OC	2%	-1.7	1	3	16
COc1ccc(NC(=O)C2CCC(CNc3c(N4CCCCC4)c(=O)c3=O)CC2)c(OC)c1 (stereo not given)	nt	0.8	nt	1	nt
Nc1c2c(nc3ccccc13)CCCC2=O	nt	2.0	nt	-8	nt
CCOC(=O)C1CCCN(C(=O)/C=C/c2ccc(OC)cc2)C1 (stereo not given)	1%	-0.3	-5	-9	nt
COc1cc(OC)c2ccc(=O)oc2c1C(CCN1CCCC(C)C1)c1ccc(N(C)C)cc1 (stereo not given)	-10%	-1.3	nt	-12	nt
CCC(C(=O)NCCc1ccccc1)c1ccccc1 (stereo not given)	nt	2.6	nt	-4	nt
COc1ccc(NC(=O)COc2coc(CN3CCc4ccccc4C3)cc2=O)cc1	nt	-1.9	nt	-6	nt
CCN(CC)C(=O)CSc1nnc2nnc3cc(OC)ccc3n12	44%	31*	nt	nt	nt
Cc1cnc(CN(C)C(=O)c2ccc3oc(Cc4ccc(Cl)cc4)nc3c2)[nH]1	nt	1.7	nt	6	nt
CC(C)[C@H](NC(=O)c1ccccc1)C(=O)O	-3%	-1.0	3	-14	nt
CCOC(=O)C1=C(CN2CCN(C(=O)c3ccco3)CC2)NC(=O)NC1c1ccccc1 (stereo not given)	nt	19	nt	-6	nt
CC(C)CC(C)N1CCC(n2nccc2NC(=O)CCc2ccccc2)CC1 (stereo not given)	nt	-2.4	nt	-4	nt
NS(=O)(=O)c1ccc(NC(=S)Nc2cc(Cl)c(Cl)cc2Cl)cc1	2%	2.3	2	6	-10
CN1CCC(N(C)C(=O)c2sc3cc(F)ccc3c2Cl)CC1	-6%	-2.2	-10	1	nt
c1ccc2sc(NCC3CCCO3)nc2c1 (stereo not given)	1%	-3.7	4	-3	nt
O=C(NCc1ccccn1)Nc1cccc(Cl)c1	-9%	4.0	2	4	-22	Arbovirus anti repeat=2
C=CCn1c(SCC(=O)Nc2cccc3ccccc23)nnc1-c1cnccn1	-1%	0.4	7	3	-11
Cc1ccc(F)cc1NC(=O)C1C2CCC(O2)C1C(=O)O (stereo not given)	nt	-0.5	nt	-3	nt
Cc1cccc(NC(=O)C2CC(=O)N/C(=N/N=C/c3ccco3)S2)c1 (stereo not given)	-4%	1.1	-3	3	-20
Cc1cc(C)c(NC(=O)C2CC(=O)N(C(C)C)C2)c(C)c1 (stereo not given)	nt	-1.6	nt	2	nt
COC(=O)c1c(NC(=S)Nc2ccccc2Cl)sc(C)c1C	5%	0.6	11	5	-20
Cc1nc2sc(C(=O)c3ccccc3)c(N)c2c2c1CCCC2	12%	-7.3	-8	49	7
O=C(O)c1ccc(-c2cccc(Cl)c2)o1	-2%	2.4	nt	-2	-14
CCCCNC(=O)CCc1c(C)nc2nc(-c3cc(OC)cc(OC)c3)nn2c1C	nt	2.8	2	6	-29
Cc1ccc(C)c(S(=O)(=O)N2CCCCC2CCNC(=O)C(=O)NC2CC2)c1 (stereo not given)	nt	-2.0	nt	-8	nt
CC(C)N1CCc2c(sc(NC(=O)c3ccc(C(=O)c4ccccc4)cc3)c2C(N)=O)C1	nt	-0.7	nt	-12	nt
COc1ccc(C(=O)NNC(=O)C(C)NC(=O)c2ccccc2NC(=O)c2ccco2)cc1 (stereo not given)	0%	1.6	3	0	-27
O=C(Nc1ccc(N2CCN(C(=O)c3ccccc3)CC2)cc1)c1ccc2c(c1)OCO2	-5%	-0.7	-47	6	6
CCOc1ccccc1C(=O)NC1CCN(Cc2nnnn2C2CCCC2)CC1	-7%	-3.9	7	nt	-57	Arbovirus anti repeat=3
CCOC(=O)c1c(C)c(P(=S)(N2CCOCC2)N2CCOCC2)n(C)c1C	-5%	2.1	-1	-5	-33	Arbovirus anti repeat=-1
CN1CCN(C(=S)NC(=O)/C=C/c2ccccc2)CC1	-3%	-1.8	-1	-6	-9
O=C1/C(=C2\C(=O)N(Cc3ccc(F)cc3)c3ccccc32)SC(=S)N1CCS(=O)(=O)O	nt	18	nt	8	nt
CC(C)(C)NC(=O)Cn1c(-c2nonc2N)nc2ccccc21	-4%	0.7	7	-5	-11
Cc1cccn2c(CN(C)C3CCOC3)c(C(=O)N3CCCCC3)nc12 (stereo not given)	4%	-3.1	8	-2	nt
CCC(C)N(C(=O)COC(=O)C1C(C(=O)OC)=C(C)NC(C)=C1C(=O)OC)C1CCS(=O)(=O)C1 (stereo not given)	1%	-0.2	8	-1	nt
NC(=O)CSc1nc2ccccc2c(=O)n1Cc1ccco1	-4%	1.2	5	18	-34

Later entries.
SMILES	Mtb growth	RecA splice inh	Arbovirus anti	Mtb betalactam	YopH inh	others
CC1=C(C(=O)OCC(C)C)C23C(=O)c4ccccc4C2(O1)OC(N)=C3C#N (stereo not given)	6%	11	-6	2	-28
COc1ccc(CN2CCNC(=O)C2CC(=O)NCCc2nc(C)c3c(n2)CCC3)cc1C (stereo not given)	nt	-0.5	nt	-4	nt
Cc1cccc(C)c1OCc1cc(C(=O)NCC2COCCO2)no1 (stereo not given)	nt	0.3	nt	-10	nt
COc1ccc(OCC(=O)NS(=O)(=O)c2ccc(Cl)cc2)cc1	nt	-2.0	nt	-11	nt
COc1ccc(NC(=O)C2CCCN2S(=O)(=O)c2cccc3nsnc23)c(OC)c1 (stereo not given)	nt	3.3	nt	-6	nt
COc1ccc(C(CNC(=O)CCNS(=O)(=O)c2ccc(C)cc2)N2CCOCC2)cc1 (stereo not given)	nt	-5.9	nt	-4	nt
CSCCC(Nc1ncnc2ccc(Br)cc12)C(=O)O (stereo not given)	-12%	-0.5	4	-6	-17
COc1ccc(C2c3cc(OC)c(OC)cc3CCN2C(=O)c2cccc([N+](=O)[O-])c2)cc1OC (stereo not given)	nt	2.7	nt	-1	nt
C/C=C/C(=O)Nc1cccc(C(F)(F)F)c1	4%	0.0	0	-3	9
COc1ccccc1NC(=O)C(C)OC(=O)C1CCN(S(=O)(=O)c2ccc(C)c(C)c2)CC1 (stereo not given)	nt	-0.8	nt	2	nt
O=C1NC(=S)S/C1=C\c1ccc(SCc2ccccc2)o1	0%	nt	-2	14	-7
CN(CC(=O)Nc1ccccc1Cl)C(=O)COC(=O)/C=C/c1ccc(C(F)(F)F)cc1	nt	-0.1	nt	-10	nt
CC(=O)N1c2ccc(S(=O)(=O)N3CCC(C(=O)N4CCCCC4)CC3)cc2CC1C (stereo not given)	nt	-1.3	nt	0	nt
Brc1ccc(-c2nnc3sc(CN4CCN(c5ccccc5)CC4)cn23)cc1	-12%	-3.2	1	-12	-29
CCCCn1nnnc1SCC(=O)Nc1sc2c(c1C#N)CCCC2	53%	3.1	12	-6	-18
CN1C=CC=C/C1=C1\SC(=S)N(N)C1=O	-1%	-1.7	-4	5	nt
CCOC(=O)c1ccc(NC(=O)CSc2ncccn2)cc1	?	nt	0	94	-25
Cc1onc(-c2ccccc2Cl)c1C(=O)Nc1ncn[nH]1	7%	-0.4	2	-5	1
C=CCNC(=O)C1CC(=O)N(c2ccc(OCC(=O)Nc3c(C)cccc3C)cc2)C1 (stereo not given)	nt	-2.3	nt	-6	nt
O=C(O)c1cnccn1	-2%	-0.9	0	2	-29
Cn1cc(C(=O)c2ccc(Cl)cc2Cl)cc1C(=O)N/N=C(\N)COc1ccc(Cl)cc1	nt	11	nt	1	nt
C=CCn1c(O)c(/C=C2/C=CC=N2)c(=O)[nH]c1=O	49%	-1.6	-4	98	-17
CCc1noc(C)c1C(=O)Nc1nc(-c2cc(C)ccc2C)c(C)s1	-11%	-0.4	2	15	-23
Cc1c(O)ccoc1=O	0%	-0.3	4	-5	nt
CCCCOC(=O)c1ccc(NC(=O)CSC2=Nc3ccccc3C3CC=NN23)cc1 (stereo not given)	5%	-1.8	-8	58	-3
Cc1cnc(C(=O)OCC(=O)c2ccc[nH]2)cn1	nt	-0.1	nt	-1	nt
CC(C)(C)c1ccc(C(=O)N2CCN(Cc3ccccc3)CC2)cc1	nt	2.2	nt	5	nt
Cc1noc(C)c1COC(=O)c1cccnc1Cl	2%	1.2	1	2	nt
Fc1ccc(Nc2c(-c3ccco3)nc3ccccn23)cc1	6%	-1.3	19	51	-16
O=C(COc1ccccc1)NCCSc1ccccc1	-6%	5.6	-2	-4	-33	Arbovirus anti repeat=-5

Random excerpt: seven records from the list.
SMILES	Mtb growth	RecA splice inh	Arbovirus anti	Mtb betalactam	YopH inh	others
Cn1cc(C(=O)c2ccc(Cl)cc2Cl)cc1C(=O)N/N=C(\N)COc1ccc(Cl)cc1	nt	11	nt	1	nt
CCOC(=O)c1ccc(NC(=O)CSc2ncccn2)cc1	?	nt	0	94	-25
C=CCNC(=O)C1CC(=O)N(c2ccc(OCC(=O)Nc3c(C)cccc3C)cc2)C1 (stereo not given)	nt	-2.3	nt	-6	nt
C=CCn1c(O)c(/C=C2/C=CC=N2)c(=O)[nH]c1=O	49%	-1.6	-4	98	-17
Fc1ccc(Nc2c(-c3ccco3)nc3ccccn23)cc1	6%	-1.3	19	51	-16
O=C(COc1ccccc1)NCCSc1ccccc1	-6%	5.6	-2	-4	-33	Arbovirus anti repeat=-5
Cc1c(O)ccoc1=O	0%	-0.3	4	-5	nt

Other records follow:
SMILES	Mtb growth	RecA splice inh	Arbovirus anti	Mtb betalactam	YopH inh	others
CCOC(=O)c1cccc(NC(=O)c2cnccn2)c1	-8%	1.1	1	-11	-48
COc1ccc(C2NCCc3sccc32)cc1 (stereo not given)	-5%	0.7	-2	-6	nt
Cc1noc(C)c1COC(=O)C1CCN(C(=O)c2ccc(Cl)cc2)CC1	2%	-0.9	8	-13	nt
CCN(CC(=O)Nc1ccc(NC(C)=O)cc1)C(=O)CCCSc1nc2ccccc2[nH]1	nt	-0.7	nt	-4	nt

Assay outcomes (PubChem)

This is a subset; count on the stated rates, not on these rows.
